# nsP2pro inh = Primary qHTS for inhibitors of NSP2Pro chikungunya virus (CHIKV) | 31,000 tested, 1.1% active | Potency, µM (doses to about 24.9 µM), without a hit: at the top dose activity change, negative = inhibition, most hits filed as inhibitors | FRET peptide cleavage, nsP2pro, fluorescence 1 h | Polyprotein P1234 (Chikungunya virus (strain S27-African prototype)), Q8JUX6; active means well fitted inhibition curve with a large enough effect; inconclusive means small, poorly fitted or top-dose-only effect; inactive means no such curve, though single readings can be large or run the other way; also: nearly all actives have a fitted effect of over 60% in size; a reference inhibitor and vehicle were the controls
# The depositor's hits bear a star; i = inactive; ? = inconclusive; & = joins results of further samples; [ ] = dose if it differs, or a comment. % is scaled to controls: 0 for no effect and ±100 for the full control effect; potency is read from the fitted curve at half-maximal effect. This is a subset; count on the stated rates, not on these rows.
SMILES,nsP2pro inh
COc1cc(N2CCC(N3CCN(C)CC3)CC2)ccc1Nc1ncc(Cl)c(Nc2ccccc2P(C)(C)=O)n1,8.1%&6.9%
CCOc1ccc(C(=O)N2c3ccccc3CC2c2nc(CCOC)no2)cc1 (centres undefined),-4.9%
C[C@@H]1O[C@@H](OC[C@H]2O[C@@H](OC(CCCCc3ccc(O)cc3)CCc3ccc(O)cc3)[C@H](O)[C@@H](O)[C@@H]2O)[C@H](O)[C@H](O)[C@H]1O (some centres undefined),55.6%[activator][10 µM]
CC[C@H]1CN(C(=O)NC(C)C)CC[C@H]1CC(=O)N1CCC(C(=O)OC)CC1,1.1%[39.2 µM]
COc1ccc2nc([C@H]3CCN(Cc4cccnc4)C3)[nH]c2c1,-0.8%[39.2 µM]
Cc1ccc(-n2c(=O)c3oc4ccccc4c3n(Cc3ccccc3F)c2=O)cc1C,-27.4%
C[C@H]1C(=O)O[C@H]2[C@H](O)[C@]34C5OC(=O)[C@]3(O[C@@H]3OC(=O)[C@H](O)C34[C@H](C(C)(C)C)[C@H]5O)C12O (some centres undefined),?
O=C(NC1CCCCCC1)c1ccc(CN2C(=O)NC3(CCS(=O)(=O)CC3)C2=O)cc1,0.4%
CC(C)NC(=O)N1CCC2(CC1)CN(C(=O)Cc1ccc(O)cc1)CCO2,-17.1%
CCOc1ccc(N(CC(=O)Nc2ccc3c(c2)OCO3)S(=O)(=O)c2ccccc2)cc1,-17.9%
Clc1ccc(CCNC(c2nnc(-c3ccccc3)o2)c2ccccc2Cl)cc1 (centres undefined),-17.5%
Nc1c(S(=O)(=O)c2ccccc2)c2nc3ccccc3nc2n1-c1ccc(F)cc1,16.8%
CCOc1ccccc1CN1C[C@@H](CO)[C@H](C2CCN(C(C)=O)CC2)C1,2.1%
c1ccc(Oc2cc3c(cn2)NCCN(Cc2ccsc2)C3)cc1,-3.4%[39.2 µM]
CCCCN(C)S(=O)(=O)c1ccc(C(=O)Nc2sc3c(c2C(N)=O)CC(C)(C)NC3(C)C)cc1,-16.5%
Nc1nc(C2CC(N)C2)cc(N2CCCN(Cc3cccs3)CC2)n1 (centres undefined),-0.7%
CCn1cc(C(=O)NCc2ccccc2Cl)c(=O)c2cc(S(=O)(=O)N3CCCCCC3)ccc21,-7.9%
O=C1c2ccccc2C(=O)C1(c1ccccc1)N1CCN(c2cccc(C(F)(F)F)c2)CC1,-17.9%
CC(C)COc1ccc(-c2csc(N3CCC(C(N)=O)CC3)n2)cc1,i
CN(C)C(=O)Oc1cccc([N+](C)(C)C)c1,-1.9%
CN1CCc2cc3c(cc2C(=O)Cc2ccc4c(c2C1)OCO4)OCO3,?
Cc1ccc2nc(-c3ccc(F)cc3)c(NC(C)(C)CC(C)(C)C)n2c1,-22.0%
COc1ccc(OC)c(NC(=O)Cn2c(=O)n(CC3CCCO3)c(=O)c3cc(OC)c(OC)cc32)c1 (centres undefined),-13.9%
Clc1cccc(Cl)c1NC1=NCCN1,1.4%
O=C(c1ccccc1OCC1CCCNC1)N1CCOCC1 (centres undefined),-9.8%

# A few values from the list.
# Value of O=C(c1ccccc1OCC1CCCNC1)N1CCOCC1 (centres undefined) under nsP2pro inh: -9.8%
# Value of CCn1cc(C(=O)NCc2ccccc2Cl)c(=O)c2cc(S(=O)(=O)N3CCCCCC3)ccc21 under nsP2pro inh: -7.9%
# Value of CN(C)C(=O)Oc1cccc([N+](C)(C)C)c1 under nsP2pro inh: -1.9%
# Value of CCCCN(C)S(=O)(=O)c1ccc(C(=O)Nc2sc3c(c2C(N)=O)CC(C)(C)NC3(C)C)cc1 under nsP2pro inh: -16.5%
# Value of O=C(NC1CCCCCC1)c1ccc(CN2C(=O)NC3(CCS(=O)(=O)CC3)C2=O)cc1 under nsP2pro inh: 0.4%
# Value of Clc1ccc(CCNC(c2nnc(-c3ccccc3)o2)c2ccccc2Cl)cc1 (centres undefined) under nsP2pro inh: -17.5%
# Value of Clc1cccc(Cl)c1NC1=NCCN1 under nsP2pro inh: 1.4%

# New compounds follow.
SMILES,nsP2pro inh
Cn1ccc2cc(S(=O)(=O)N3CCN(S(=O)(=O)c4c(F)cccc4F)CC3)ccc21,-0.3%
Cc1nn(C(C)C(=O)NC2CCCCC2)c(=O)c2c1sc1ccccc12 (centres undefined),-25.9%
CC(=O)OC/C=C(\C)C(CC1C(C)=C(OC(C)=O)C(=O)C2C(C)(C)C(O)CCC12C)OC(C)=O (centres undefined),?
C=CC1C(OC2OC(CO)C(O)C(O)C2O)OC=C(C(=O)OC)C1CC(=O)OCC1C(C)C(O)CC1C(CO)COC(=O)CC1C(C(=O)O)=COC(OC2OC(CO)C(O)C(O)C2O)/C1=C\C (centres undefined),-5.0%[5.1 µM]
O=C(O)CCCc1ccc(N(CCCl)CCCl)cc1,-27.3%
Cc1cn2cc(C(=O)N(C)CCO)cc(NC3CCOc4cccc(C)c43)c2n1 (centres undefined),17.7%
CC(=O)Nc1ccc(-c2c(NC(C)=O)sc3c2CCNC3)cn1,-2.9%
Cc1c(C(=O)NCc2cccc(F)c2)oc2c1-c1[nH]ncc1CC2,-31.7%
C=C1C(=O)O[C@H]2C1[C@H](OC(=O)/C(=C/CO)COC(=O)/C(C)=C/CO)CC(=C)[C@@H]1CC(=O)[C@@H](C)[C@@H]12 (some centres undefined),1.21µM*
CCc1c2c(nc3ccc(O)cc13)-c1cc3c(c(=O)n1C2)COC(=O)[C@]3(O)CC,-6.1%
CO/N=C(\C(=O)N[C@@H]1C(=O)N2C(C(=O)O)=C(CSc3nc(=O)c(O)nn3C)CS[C@H]12)c1csc(N)n1,-30.0%
COc1ccc(-c2cn3cc(C(=O)N4CCCCC4)nc3c(=O)n2CC2CC2)cc1,-1.4%
COCC(=O)N1CC(C(=O)O)C2(CCOCC2)C1 (centres undefined),-2.1%
CC(=O)c1ccc(-n2c(CCC(=O)O)ccc2-c2cccs2)cc1,9.7%
COc1ccccc1CNC(=O)C(C)n1c(=O)cc(C(F)(F)F)c2c(C)nn(C)c21 (centres undefined),?
CN(C)c1ccc2nc(NC(=S)N3CCN(c4cccc(C(F)(F)F)c4)CC3)sc2c1,i
CCOC(=O)C1CCCN(C(=O)Cn2c(=O)cc(C)c3c(C)nn(C)c32)C1 (centres undefined),-17.6%
CCC(C)/C=C(C)/C=C/C1=CC2=C(Cl)C(=O)C(C)(OC(C)=O)C(=O)C2=CO1 (centres undefined),?
O=C1CCN(Cc2ccncc2)CCCC(C(=O)NCCCN2CCCC2=O)CCN1 (centres undefined),-17.6%
Cn1ncc(N2CCC(CNC(=O)CCN3CCCC3=O)C2)cc1=O (centres undefined),-4.1%
COc1cc2c3c(cc4ccccc4c3c1O)NC2=O,?
COC(=O)c1ccc(N2CCN(S(=O)(=O)c3ccc4c(c3)CC(=O)N4)CC2)cc1,i
Cc1c(F)cccc1NC(=O)N1C[C@@H](F)C[C@H]1C(=O)N1CCOCC1,-8.4%
O=C(NCCCN1CCOCC1)c1cnn2c(-c3ccccc3)cc(-c3ccccc3)nc12,26.0%
Cc1cc2c(s1)c1cnn(Cc3ccc(SC(F)(F)F)cc3)c(=O)c1n2C,-3.2%

# Copied from above for reference:
SMILES,nsP2pro inh
COc1cc2c3c(cc4ccccc4c3c1O)NC2=O,?
COC(=O)c1ccc(N2CCN(S(=O)(=O)c3ccc4c(c3)CC(=O)N4)CC2)cc1,i
Cc1c(F)cccc1NC(=O)N1C[C@@H](F)C[C@H]1C(=O)N1CCOCC1,-8.4%
O=C(NCCCN1CCOCC1)c1cnn2c(-c3ccccc3)cc(-c3ccccc3)nc12,26.0%
Cc1cc2c(s1)c1cnn(Cc3ccc(SC(F)(F)F)cc3)c(=O)c1n2C,-3.2%

# Further compounds.
SMILES,nsP2pro inh
CC(C)c1nnc(C2CN(C(=O)c3ccc4ccccc4n3)CC23CCOCC3)o1 (centres undefined),i
COc1cc(O)c(C(CC(=O)N2CCCC(C)C2)c2ccc(C)cc2)c(OC)c1 (centres undefined),2.3%
O=C(O)CCC(=O)OC[C@@H](NC(=O)C(Cl)Cl)[C@H](O)c1ccc([N+](=O)[O-])cc1,11.8%
COCC(=O)N1CC(F)(F)C[C@H]1c1nc(-c2cccnc2)no1,0.6%
O=C(NCc1ccccc1)N1CCCC(Cn2cnc3cccnc32)C1 (centres undefined),-2.2%
COc1cccc(CNC(=O)N2CCc3c(sc4c3CCCC4)C2c2ccc(F)cc2)c1 (centres undefined),-8.8%
Cc1cccc(CNC(=O)CCCn2c(=O)c3cccn3c3ccc(F)cc32)c1,-21.8%
CCCCOc1ccc(C(=O)Nc2nnc3n2CCS3)cc1,21.7%
CCC1CCCCN1S(=O)(=O)c1cc2c(cc1C)NC(=O)CO2 (centres undefined),-12.2%
CCCNS(=O)(=O)Nc1ncnc(OCCOc2ncc(Br)cn2)c1-c1ccc(Br)cc1,-5.8%
COc1ccc(CO[C@H]2COCCN(c3nc4ccccc4s3)C2)cc1,i
O=C(O)Cn1nc(C2CCOCC2)nc1C1CNC(=O)C1 (centres undefined),i
CC(=O)N1CCc2cc(CNC(=O)Nc3cc(Cl)ccc3C)ccc21,-0.9%
Cc1cc(OCCn2c(C3CC(=O)N(Cc4ccc(F)cc4)C3)nc3ccccc32)ccc1Cl (centres undefined),4.4%
C=CCN(C)C(=O)C[C@@H]1c2nc(NC(=O)c3ccco3)sc2C[C@@H]2[C@](C)(CO)[C@H](O)CC[C@]21C,-13.0%
COc1ccc(C2Nc3ccccc3C(=O)N2Cc2ccccc2)cc1COc1c(C)cc(NC(C)=O)cc1C (centres undefined),-2.9%
COC[C@H]1C[C@@H](NC(=O)Nc2cccnc2)[C@H](O)[C@@H]1O,-13.2%[39.2 µM]
CCOCCc1nn2c(=O)cc(COC(=O)c3ccccc3NC(=O)c3cccs3)nc2s1,-12.7%
CN1CC(O)CN([S+](=O)([O-])c2cccs2)CC1=O (centres undefined),-12.0%
CCOc1ccc(N(CC)S(=O)(=O)N2CCCC(C(=O)Nc3cc(Cl)ccc3OC)C2)cc1 (centres undefined),-21.4%
CC1CCC(C(C)C)C(OC(=O)c2ccccc2N)C1 (centres undefined),-4.5%
CC1(C)OC[C@@H](COC(=O)CCc2ccc(OC[C@@H](O)CNCCNC(=O)N3CCOCC3)cc2)O1,7.2%
Cc1cccc(NC(=O)CS(=O)(=O)c2cccc3nsnc23)c1,-13.0%
Cc1ccc(Nc2nnc(-c3ccc([N+](=O)[O-])cc3)o2)cc1Cl,-0.7%
COCCc1noc([C@@H]2CC(F)(F)CN2C(=O)c2ccoc2)n1,-2.2%

# Next section:
SMILES,nsP2pro inh
COC(=O)c1c(NC(=O)/C(C#N)=C/c2ccccc2)sc2c1C(C(=O)OC)CC2 (centres undefined),0.5%
CCN(Cc1noc(C2CCC2)n1)C(=O)CC1C(=O)NCCN1CC(C)C (centres undefined),-14.5%
CC/C(=C(\c1ccc(O)cc1)c1ccc(OCCNC)cc1)c1ccccc1,101.1%[activator]
CC(C)CCC[C@@H](C)[C@H]1CC[C@H]2[C@@H]3CC[C@H]4C[C@@H](O)CC[C@]4(C)[C@@H]3CC[C@]12C,10.2%[10 µM]
Cc1ccccc1NC(=O)Nc1ccc(CC(=O)N(C)[C@@H](CC(C)C)C(=O)NCC[C@H](NC(=O)[C@@H]2CCCN2S(=O)(=O)c2cc(Cl)cc(Cl)c2)C(=O)O)cc1,14.7%[10 µM]
Cc1ccc(-c2cn3c(n2)N(S(C)(=O)=O)CCC3)cc1,i
Cc1ccc(C(=O)N2CCN(c3ccc([N+](=O)[O-])cc3)CC2)cc1Cl,-6.4%
c1ccc(CN2CCc3c(sc4ncnc(N5CCOCC5)c34)C2)cc1,i
CCC(=O)NCC[C@@H]1CCc2ccc3c(c21)CCO3,0.2%
Cc1ccccc1CCNC(=O)c1ccc2c(c1)nc1n2CCC(C)C1 (centres undefined),-6.7%
CC(=O)Nc1ccc(NC(=O)c2cnn3c(C)cc(C)nc23)cc1,-0.4%
Cn1nccc1OCc1cn2c(=O)n(C)cc(-c3ccc(F)cc3)c2n1,-30.3%[39.2 µM]
COc1ccc(-c2nc3ccccc3n3c(-c4cccc(C)c4)c4c(=O)n(C)c(=O)n(C)c4c23)cc1OC,-6.4%
CC(=O)c1ccc(N2C(=O)N(CC(=O)c3ccc(C)cc3)c3ccccc3S2(=O)=O)cc1,-6.9%
O=C(Nc1ccc(Cl)nc1)c1ccc2ccnn2c1,-1.3%[39.2 µM]
CN1CCCC(CN(C)C(=O)c2cc(-c3cnn(CCO)c3)nc3ccccc23)C1 (centres undefined),i
CC(C)(C)C(=O)N1CCC2(CC1)C(=O)N(CC(=O)Nc1cccc(Cl)c1)CN2c1ccccc1,-5.3%
Nc1ccc(C(=O)c2cc3c(ccc4ccccc43)[nH]2)cc1,1.6%[39.2 µM]
CSc1ccc(C(=O)c2[nH]c(=O)[nH]c2C)cc1,-4.1%
COc1ccc(C2c3c(ncn(Cc4ccccc4)c3=N)Oc3ccc4ccccc4c32)cc1OC (centres undefined),-0.5%
O=C(Nc1cccc(Cl)c1)c1cc(-c2ccc[nH]2)n[nH]1,11.3%
CCN1CC(C(=O)N(C)Cc2ccc(Oc3ccccc3)cc2)CCC1=O (centres undefined),i
N#Cc1nc(Nc2cc(F)cc(F)c2)nc(Nc2cc(F)cc(F)c2)n1,-6.5%
CN1C(=O)C(c2ccccc2)CC12CCN(S(=O)(=O)N(C)C)CC2 (centres undefined),i
CCNC(=O)N1CCCC(Cc2noc(-c3cnccn3)n2)C1 (centres undefined),-4.4%
O=S(=O)(Nc1nccs1)c1ccc(NCc2ccc(Cl)cc2O)cc1,i
COc1cc2oc(-c3ccccc3)cc(=O)c2c(OC)c1OC,17.2%
O=C(NC1CCCCC1)O[C@@H]1CO[C@H]2[C@@H]1OC[C@@H]2NS(=O)(=O)c1ccc(Cl)cc1,-20.9%
CN1CCOC[C@H]2CCN(C(=O)c3cccs3)C[C@H]21,?
O=c1ccc2cc3ccoc3cc2o1,-10.7%
